NPR1 antag: Natriuretic polypeptide receptor (hNpr1) antagonism - Primary qHTS; Atrial natriuretic peptide receptor 1 (Homo sapiens), P16066; HEK293 hNpr1 GloSensor cGMP, ANP-stimulated luminescence; Potency, µM (top dose mostly 46.3 µM), without a hit: at the highest dose activity change, negative = inhibition, actives largely listed as inhibitors; 76,000 compounds, 1.6% hits; active = well fitted inhibition curve with a large enough effect; inconclusive = small, poorly fitted or top-dose-only effect; inactive = no such curve, though single readings can be large or run the other way;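 note: nearly all actives have a fitted effect of over 60% in size; nearly all hits also lower the signal before the agonist is added; a reference antagonist and vehicle were the controls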
Target sequence (P16066 whole entry, looked up): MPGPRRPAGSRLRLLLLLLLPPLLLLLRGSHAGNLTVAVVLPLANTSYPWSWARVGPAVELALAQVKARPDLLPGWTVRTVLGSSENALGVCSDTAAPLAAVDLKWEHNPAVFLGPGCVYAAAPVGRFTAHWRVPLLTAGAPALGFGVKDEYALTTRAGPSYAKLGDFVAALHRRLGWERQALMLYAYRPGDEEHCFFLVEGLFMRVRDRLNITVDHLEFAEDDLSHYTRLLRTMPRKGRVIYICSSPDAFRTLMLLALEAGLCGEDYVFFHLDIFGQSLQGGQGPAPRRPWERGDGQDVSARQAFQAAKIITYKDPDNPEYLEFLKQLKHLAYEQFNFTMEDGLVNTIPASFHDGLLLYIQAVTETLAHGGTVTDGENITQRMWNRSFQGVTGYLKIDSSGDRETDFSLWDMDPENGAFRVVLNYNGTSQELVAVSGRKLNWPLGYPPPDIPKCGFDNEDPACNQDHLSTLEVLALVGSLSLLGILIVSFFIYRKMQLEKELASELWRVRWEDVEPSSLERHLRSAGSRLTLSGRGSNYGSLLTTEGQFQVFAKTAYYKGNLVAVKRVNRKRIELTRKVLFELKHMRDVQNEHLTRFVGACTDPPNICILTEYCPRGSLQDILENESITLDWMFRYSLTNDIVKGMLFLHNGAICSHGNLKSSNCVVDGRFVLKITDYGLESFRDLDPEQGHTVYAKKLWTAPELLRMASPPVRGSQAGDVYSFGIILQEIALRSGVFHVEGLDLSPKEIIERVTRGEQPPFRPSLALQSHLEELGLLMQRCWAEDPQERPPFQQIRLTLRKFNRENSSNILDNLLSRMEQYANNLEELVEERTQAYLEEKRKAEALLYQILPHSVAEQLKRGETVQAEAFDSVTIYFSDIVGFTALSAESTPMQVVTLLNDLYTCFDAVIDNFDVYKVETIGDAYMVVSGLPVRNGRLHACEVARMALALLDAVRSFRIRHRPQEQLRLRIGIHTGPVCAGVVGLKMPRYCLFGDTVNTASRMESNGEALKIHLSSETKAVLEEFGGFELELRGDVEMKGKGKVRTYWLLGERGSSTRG
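HEK293 cells stably expressing human Npr1 and cGMP GloSensor pGS-40F, loaded 2 h with 2% GloSensor reagent, given compound 30 min at room temperature. Luminescence read before and 20 min after 0.1 nM hNppA.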
Numbers without * were called inactive; ? = inconclusive; [ ] = another dose, or the depositor's remark. % is set by controls: 0 for no effect and ±100 for the full control effect; potency is the fitted concentration of half-maximal effect. This is a subset, so the mix of outcomes need not match the whole.

NPR1 antag | smiles
5.0% | O=C(Nc1ccsc1)N[C@H]1C[C@H]2C(=O)NC[C@@H](CCC(=O)N3CCc4ccccc43)N2C1
-0.3% | O=C(Cc1cccc(F)c1)N1CCC2(CCCCO2)CC1
3.2% | CN(C)C(=O)c1ccc2c(c1)N(C)C(CC(=O)NC(C)(C)c1ccccc1)CO2 (stereo unspecified)
-9.3% | COc1ccc(Cn2c(C3CCN(C(=O)c4ccc(F)cc4)CC3)n[nH]c2=O)cc1
-5.2% | CCc1cccc(NC(=O)N2CCc3c(c4cc(F)ccc4n3C)C2)c1
2.9% | COCCC(=O)NCCC1CCN(C(=O)Nc2ccc(C)cc2)CC1
-19.6%[70.6 µM] | N#Cc1cccc(CN2CCC[C@H]2c2nc(-c3ccc(OC4CCCCC4)nc3)no2)c1
-2.4% | Cc1ccc(CN2C(=O)OC(c3cccc(NC(=O)c4cccs4)c3)C2C(=O)NCC(C)C)cc1 (stereo unspecified)
0.9% | O=C(CC1CCOCC1)N1CCN(Cc2ccc(F)cc2F)CC1
-25.4% | CCN1CCN(C(=O)c2cc3n(n2)CC(c2ccc(Br)cc2)OC3)CC1 (stereo unspecified)
3.3% | CC(C)c1ccccc1OCC(=O)c1ccc2c(c1)N(CC(=O)N1CCOCC1)C(=O)CO2
2.1% | O=C(NCCn1ccn2nc(-c3ccc(F)cc3)cc2c1=O)c1c(F)cccc1Cl

The last 7 entries of the section above are carried over, then new ones follow:
NPR1 antag | smiles
2.9% | COCCC(=O)NCCC1CCN(C(=O)Nc2ccc(C)cc2)CC1
-19.6%[70.6 µM] | N#Cc1cccc(CN2CCC[C@H]2c2nc(-c3ccc(OC4CCCCC4)nc3)no2)c1
-2.4% | Cc1ccc(CN2C(=O)OC(c3cccc(NC(=O)c4cccs4)c3)C2C(=O)NCC(C)C)cc1 (stereo unspecified)
0.9% | O=C(CC1CCOCC1)N1CCN(Cc2ccc(F)cc2F)CC1
-25.4% | CCN1CCN(C(=O)c2cc3n(n2)CC(c2ccc(Br)cc2)OC3)CC1 (stereo unspecified)
3.3% | CC(C)c1ccccc1OCC(=O)c1ccc2c(c1)N(CC(=O)N1CCOCC1)C(=O)CO2
2.1% | O=C(NCCn1ccn2nc(-c3ccc(F)cc3)cc2c1=O)c1c(F)cccc1Cl
-5.5% | O=C(Cc1ccccc1)NCC1CN(Cc2ccc3[nH]ccc3c2)CC12CN(c1ccccc1)C2 (stereo unspecified)
0.5% | O=C1NCCCc2[nH]c(-c3cnn(-c4ccc(F)cc4)c3)nc21
22.4µM* | O=C(NCc1ccccc1)c1nc2c(o1)CCN(Cc1ccc(F)c(Cl)c1)CC2
-5.5%[70.6 µM] | O=C(Nc1cccc2ccccc12)O[C@@H]1CO[C@H]2[C@@H]1OC[C@@H]2NC(=O)c1ccco1
5.7% | O=C1CC2(CCN(C(=O)c3ccc4c(c3)OCO4)CC2)Oc2ccccc21
-4.1% | O=C(NCc1ccccc1)C1CCC(=O)N1C1CCN(C(=O)c2cc(F)ccc2F)CC1 (stereo unspecified)
0.0% | COCCN(C)C[C@@H]1CN(C(=O)c2ccc(=O)[nH]n2)C[C@@H]1CO
-8.1% | CC(C)c1ccc(C(=O)N2CC(C(=O)NC3CCCCC3)C3(CCOCC3)C2)cc1 (stereo unspecified)
-4.4% | Cc1nn(CC(=O)NC(C)Cc2cnccn2)c(=O)n1CCc1ccccc1 (stereo unspecified)
-22.1% | COc1cccc(NC(=O)c2ccc3c(c2)NC(C)(COc2ccc4[nH]ccc4c2)CO3)c1 (stereo unspecified)
4.5% | O=C(CN1C(=O)COc2ccc(C(=O)COc3ccccc3F)cc21)Nc1ccc(F)cc1
4.6% | O=C(NCc1ccncc1)C1CN(Cc2ccccn2)CC12CCOCC2 (stereo unspecified)

More results follow.
NPR1 antag | smiles
2.2% | C[C@]1(CO)C2CC[C@@H](O)[C@@H](CC(=O)N3CCCC3)[C@]2(C)CC[C@H]1OC(=O)Nc1cccc(F)c1 (stereo partly specified)
1.0% | COCCOCc1nc(C2CCN(C(=O)NCc3ccc(OC)cc3)CC2)no1
-2.7% | COc1nc2c(cc1CNC(=O)CCc1ccccn1)C(=O)N(C1CCCC1)C2
-6.0% | COCCOC1CCN(S(=O)(=O)c2ccccc2C)CC1
3.7% | COc1ccc(Cl)cc1NC(=O)Cn1ccn2nc(-c3ccc(F)cc3)c(CO)c2c1=O
-13.1% | COCCN1CCCCCC(O)c2cc(C(=O)NC3CCC3)ccc21 (stereo unspecified)
-17.2%[70.6 µM] | COc1ccccc1C(O)c1nc(Nc2ccc(Cl)cc2)n[nH]1 (stereo unspecified)
10.4% | CCOCCCNC(=O)NCC12CCCC=C1NC(=O)CC2 (stereo unspecified)
0.9% | CCOC(=O)CCNC(=O)N1CCC(Oc2ncccc2C(=O)N2CCCCC2)C1 (stereo unspecified)
19.3% | CCCn1c(C)c(CC(=O)NCc2cccnc2)c2c1CC(C)(C)CC2=O
-1.1%[70.6 µM] | O=C(O)CCn1ncc2cc(OCC3CCN(C(=O)Cc4ccccc4)CC3)ccc21
1.4% | COCCN1CCCC2(CCN(C(=O)Cn3cccnc3=O)C2)C1=O (stereo unspecified)

NPR1 antag: hit marks shown above
NPR1 antag | smiles
22.4µM* | O=C(NCc1ccccc1)c1nc2c(o1)CCN(Cc1ccc(F)c(Cl)c1)CC2

Further results:
NPR1 antag | smiles
-1.9% | COc1ccc(-c2ccnc3nc(CC(C)C)nn23)c(F)c1
-0.1%[70.6 µM] | COc1ncccc1N1CC2(COCC(=O)N(Cc3cccc(OC(F)(F)F)c3)C2)C1
-3.1%[70.6 µM] | COc1ccc2c(c1)CN(C(=O)c1ccc(C(F)(F)F)cc1)CC[C@H]1COC(=O)N21
-0.5% | COc1ccc(OCc2nc(C)c(CCO)c(=O)n2CC(=O)Nc2cccc(C)c2C)cc1
6.1% | CCOc1ccc(C(=O)N2C[C@@H](CO)[C@H](c3ccncc3)C2)cc1
9.5% | O=C(c1cnccn1)N1CCC2(CC1)CC(N(Cc1ccccc1)C1CC1)CCO2 (stereo unspecified)
14.2% | CN1CCN(C(=O)CC2CCCN(c3cnn(C)c(=O)c3)C2)CC1 (stereo unspecified)
-3.3% | CCc1ccccc1S(=O)(=O)N1C[C@@H]2C(=O)N(C(CC)c3cccs3)C(=O)[C@@H]2C1 (stereo partly specified)
2.1% | O=C(C[C@@H]1CCNC[C@@H]1Cc1cc(CN2CCOCC2)on1)N1CCC(Cc2ccccc2)CC1
4.9% | CCC(=O)N1CCC(Oc2ccc(C(=O)N3CCCCC3)cn2)C1 (stereo unspecified)
0.0% | CCCCC1CCC(C(=O)NCC2CCN(c3cnn(C)c(=O)c3)C2)CC1 (stereo unspecified)
-11.9% | COc1ccc(C)cc1NC(=O)Cn1cccc1-c1nc(-c2ccccc2)no1

The list continues:
NPR1 antag | smiles
-15.8% | COc1cccc(CC(=O)Nc2ccc3c(c2)CN(C2CCCCC2)C(=O)CO3)c1
0.4% | O=C(CN1C(=O)CNC1=O)N[C@@H]1[C@@H](Cc2ccccc2)[C@H]2OCC[C@@H]12
-0.6% | COCCC1(NC(=O)C(C)c2ccccc2)CCN(S(C)(=O)=O)CC1 (stereo unspecified)
3.0% | CN1CCC(CNc2ncc(C(C)(C)C(=O)O)c(N3CCOCC3)n2)CC1
-18.8% | COCCCn1c(C)cc(C(=O)N2CCC(CCOc3ccccc3)C2)c1C (stereo unspecified)
-11.5% | O=C(CCc1nc(C2CCCN2C(=O)C2CC2)no1)NCCC1=CCCCC1 (stereo unspecified)
6.6% | O=C(NCCN1CCc2ccccc2C1)c1cccc2c1CCN2C(=O)C1CC1
27.6%[70.6 µM] | COc1cccc(N2CC(C(=O)NCC(F)(F)F)NC2=O)c1 (stereo unspecified)
5.7%[70.6 µM] | Cc1ccc(C(=O)N[C@@H]2C=C(C(=O)N[C@H](CC(C)C)C(N)=O)C[C@@H](O)[C@@H]2O)cc1
-13.1%[70.6 µM] | CCOC(=O)c1cccc(NC(=O)N2CC[C@@H](CC(=O)NCCOC)[C@@H](CC)C2)c1
3.1%[70.6 µM] | CN1[C@@H](CCC(=O)NCc2cccs2)CNC(=O)[C@@H]2[C@H]1CCN2Cc1ccc(O)cc1
1.4%[70.6 µM] | OC[C@@H]1O[C@H](CNC2CCOCC2)[C@H](N2CCCC2)[C@@H]1O

Additional structures:
NPR1 antag | smiles
-17.7% | Cc1ccc(-c2cc3c(=O)n(CCNC(=O)c4ccc(N(C)C)cc4)ccn3n2)c(C)c1
2.4% | Cc1ccccc1CC(=O)N1C[C@@H](CO)[C@H](c2ccncc2)C1
0.8% | Cc1n[nH]c(C)c1C(N)C(=O)NCc1scnc1-c1ccccc1 (stereo unspecified)
-27.1% | O=C(c1ccco1)N1CCC(n2cc(-c3nc(-c4ccccc4)no3)nn2)C1 (stereo unspecified)
9.0% | Cc1cnc(C(=O)NC2C[C@H]3CC[C@@H](C2)N3C(=O)c2ccccc2C)cn1 (stereo partly specified)
? | O=C(N1CCCC(n2cc(-c3nc(C4CC4)no3)nn2)C1)C1(c2ccccc2)CC1 (stereo unspecified)
-4.8% | COc1cccc(CCC(=O)N2CC(c3nnc(-c4ccncc4)o3)C3(CCOCC3)C2)c1 (stereo unspecified)
1.0%[70.6 µM] | CC(=O)NC[C@H]1COCc2nc3cc(F)ccc3n21
0.9% | Cc1cc(C)cc(CCC(=O)N2CCN(c3ccc(C#N)cn3)CC2)c1
-0.2%[70.6 µM] | Cc1ccccc1CN1CC[C@@H]2OCC(=O)N(Cc3cccc(C(N)=O)c3)[C@H]2CC1
24.8%[70.6 µM] | Cc1ccccc1C(=O)N(C)Cc1ccc(F)cc1
0.8% | CSc1cccc(NC(=O)N[C@H]2C[C@@H](C(=O)N[C@H](Cc3c[nH]c4ccccc34)C(N)=O)N(C(=O)c3cccn3C)C2)c1

The list goes on.
NPR1 antag | smiles
1.3%[70.6 µM] | CCCCCC(=O)N1CC[C@@H](CC(=O)N(C)CC#N)[C@@H](CC)C1
-2.9% | O=C(NCC1CCCCC1)c1ccc(N2CC3CC(C2)[C@H]2CCCC(=O)N2C3)nc1 (stereo partly specified)
-1.1% | CCc1[nH]ncc1C(=O)N[C@H]1CC[C@H](Nc2nccc(-c3ccccn3)n2)C1
-10.1% | c1cc(CN2CCCCCC2)cc(-c2nc(C3CCOC3)no2)c1 (stereo unspecified)
-11.2% | CNC(=O)CCn1ncc2cc(OCc3ccccc3-c3cc(Cl)ccc3OC)ccc21
-13.1% | CC(=O)N1CCCN(Cc2nc(-c3cccc(C(F)(F)F)c3)oc2C)CC1
-13.2% | Cc1noc(C)c1CN1CCCN(S(=O)(=O)c2ccccc2)CCC(=O)NCC1
-0.8%[70.6 µM] | Cc1noc(C)c1-c1cc2cc(C(C)C)oc2c(N2CCN(C)CC2)n1
-4.0% | O=C(c1ccc(C(F)(F)F)cc1)N1CCC2(CC1)CNc1ccccc1[S+](=O)([O-])N2
6.7%[70.6 µM] | COC(=O)[C@@H]1Cc2ncn(C(C)C)c2CN1S(=O)(=O)c1ccc(F)cc1
-3.3%[70.6 µM] | CCn1c2c(c(=O)n1-c1ccccc1)CCN(C(=O)Cc1ccc3c(c1)OCO3)C2
-12.0%[70.6 µM] | Cc1cccc(CN2CCN3C(=O)N(Cc4ccc(F)cc4)C[C@H]3C2)n1

Another view of part of the listing above:
canonical_smiles: O=C(NCC1CCCCC1)c1ccc(N2CC3CC(C2)[C@H]2CCCC(=O)N2C3)nc1 (stereo partly specified)
  NPR1 antag: -2.9%
canonical_smiles: CCc1[nH]ncc1C(=O)N[C@H]1CC[C@H](Nc2nccc(-c3ccccn3)n2)C1
  NPR1 antag: -1.1%

Later entries:
NPR1 antag | smiles
-13.0%[70.6 µM] | Nc1ncccc1CN1CC[C@@H]2OCC(=O)N(Cc3c[nH]c4ccccc34)[C@H]2CC1
1.6% | CN(C)c1ccc(-c2nnnn2[C@H]2CO[C@H]3[C@@H]2OC[C@@H]3NS(=O)(=O)c2ccc3ccccc3c2)cc1
-0.8%[70.6 µM] | Cc1cccc(OCC2(CNCc3c(C)noc3C)C[C@@H](O)[C@@H](O)C2)n1 (stereo partly specified)
2.2% | Cc1cc(C)c(C(=O)O)c(N2CCC3(CC2)C(C(=O)O)CC(=O)N3C)n1 (stereo unspecified)
0.0%[70.6 µM] | Fc1ccccc1-c1nnc([C@H]2CCN(Cc3cccc(Cl)c3)C2)o1
-3.3% | O=C(Cn1nc2c(cc1=O)CCCCC2)NC1CCCc2c1[nH]c1ccccc21 (stereo unspecified)
0.0% | CC(=O)Nc1ccc(CN2CCC3(CC2)CC(=O)c2ccccc2O3)cc1
-0.4% | COCc1nnc2n1CCC(NC(=O)CCc1nc3ccccc3s1)CC2 (stereo unspecified)
-2.1% | Cc1noc(CC2CCN(C(=O)C3CCN(C(=O)C4CCCC4)CC3)CC2)n1
-0.3% | O=C(NCc1ccco1)C1COC2(CCCCC2)N1C(=O)c1cccc([N+](=O)[O-])c1 (stereo unspecified)
-11.7% | CC(=O)N(C1CC1)C1CCOC2(CCN(C(=O)c3cccc4nccnc34)CC2)C1 (stereo unspecified)
-19.8% | CCc1ccccc1Nc1nc(-c2cccc(OC)c2OC)no1

Next records follow:
NPR1 antag | smiles
-20.0%[70.6 µM] | C1=C(c2nc(-c3cccc4[nH]ncc34)cc3c2ccn3Cc2cccnc2)CCOC1
? | CNC(=O)CCn1ncc2cc(OC3CCc4cccc(-c5ccccc5F)c43)ccc21 (stereo unspecified)
1.1% | O=C(NCCCN1CCCC1=O)c1c(OCC2CC2)cc(=O)n2c1CCCCC2
15.3%[70.6 µM] | O=C(NCc1cccs1)C1CN(Cc2ccccc2)C(=O)N1 (stereo unspecified)
